Mtb hypoxia inh: Mtb hypoxia fluorescent reporter inhibition | M. tuberculosis hypoxia-regulated fluorescent reporter, fluorescence | fluorescence inhibition, % (no concentration beside the values) | actives 0.1% (n = 300,000) | AID 1159583;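 active = 35 to 45% if threefold the growth effect, above 45% if 1.5-fold the growth effect; inactive = the rest, general growth blockers included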;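 note: wells of about 50 µL received 100 nL stock; 0% = vehicle wells and 100% = reference inhibitor wells; whole bacteria with a GFP reporter of the hypoxia response; strong numbers were not always called active; many hits fall short of the cut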
BJeLR viability: kills HRASV12-expressing BJeLR cells; actives 0.17% (n = 300,000); inhibition, % (test concentration not listed); BJeLR (HRASV12) viability, CellTiter-Glo ATP luminescence, 48 h; reference of the scale not given here;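 active = replicate mean above 50%; inconclusive = above 50% but judged a plate artefact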;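 note: 50 nL library stock added to about 25 µL; numbers are from one replicate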
ugtP null kill: kills S. aureus RN4220 lacking UgtP; AID 1259309; growth inhibition, % (no concentration beside the values); actives 0.54% (n = 330,000); S. aureus RN4220 ugtP deletion, OD600 growth, 16 h; some inactives read as strong as hits;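 active = z-score under -3 and OD600 up to 0.15 on both plates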;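 note: plate controls were untreated wells for no effect and antibiotic for full effect; wells of about 80 µL received 100 nL stock; the first replicate is given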
RN4220 kill: S. aureus RN4220 growth inhibition. OD600, 16 h. inhibition, % (concentration not given with the values). actives 0.33% (n = 330,000);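 active = z-score of -3 or lower and OD600 up to 0.18 on both plates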;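 note: plate controls were untreated cells for no effect and reference antibiotic for full effect; stock transfer was 100 nL into about 80 µL; one replicate is shown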
PrP UTR inh: suppresses PrP 5' UTR mRNA reporter expression. cell-based PrP 5' UTR mRNA reporter, plate reader. inhibition, % (no concentration beside the values). actives 0.35% (n = 340,000). AID 488862;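 active = every replicate at 50% or more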;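 note: 0 = median of the neutral control wells; tested in H4 reporter cells; numbers are from one replicate; inactives centre near -14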
Bead autofluor: compound fluorescence in toxin protease inhibitor counterscreen. actives 3.1% (n = 360,000). fluorescence intensity (concentration not given with the values). AID 624483. compound autofluorescence counterscreen, microsphere flow cytometry; active compounds read high;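 active = at least 3 SD above the mean of all compounds, about 16000 in these data; inconclusive = too few beads counted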;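 note: 100 nL of 1 mM stock went into each well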
Mtb hypoxia inh growth: also measured in Mtb hypoxia inh; calls as there; growth inhibition, %; measured here: M. tuberculosis growth (absorbance);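 0% = vehicle and 100% = reference antibiotic; read after six days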
* = called active by the depositor.

Results for COc1ccc(N(CC(=O)Nc2cc(OC)ccc2OC)S(=O)(=O)c2c(C)nn(C)c2C)cc1 ?
Mtb hypoxia inh: 7; BJeLR viability: 2; ugtP null kill: -8; RN4220 kill: -9.2; PrP UTR inh: -10; Bead autofluor: 5464; Mtb hypoxia inh growth: 12

How did CC(=O)C(=NNc1cccc(Cl)c1)N1CCOCC1 do in these assays?
Mtb hypoxia inh: 9; ugtP null kill: -14; RN4220 kill: 2.1; Mtb hypoxia inh growth: 11

What do the screens show for `COc1cc(/C=C2\CC(C(C)(C)C)C/C(=C\c3cc(OC)c(OC)c(OC)c3)C2=O)cc(OC)c1OC` (stereo not drawn)?
Mtb hypoxia inh: -9; BJeLR viability: 35; ugtP null kill: 3; RN4220 kill: 3.1; PrP UTR inh: -8; Bead autofluor: 4100; Mtb hypoxia inh growth: 4

Results for COc1ccc(CCn2c(=N)c(C(=O)NCC3CCCO3)cc3c(=O)n4ccccc4nc32)cc1 (stereo not drawn) ?
Mtb hypoxia inh: -7; BJeLR viability: 1; ugtP null kill: 3; RN4220 kill: 3.7; PrP UTR inh: -2; Bead autofluor: 4159; Mtb hypoxia inh growth: -17

How did CC(C)Oc1cccc(C(=O)C2CCCN(C(=O)c3ccoc3)C2)c1 (stereo not drawn) do in these assays?
Mtb hypoxia inh: 14; BJeLR viability: 1; ugtP null kill: 4; RN4220 kill: 9.9; PrP UTR inh: -26; Bead autofluor: 4099; Mtb hypoxia inh growth: 10

How did Cc1cc(Sc2nc(N(C)C)nc(N(C)C)n2)nc(Cl)n1 do in these assays?
Mtb hypoxia inh: 1; BJeLR viability: -16; ugtP null kill: 11; RN4220 kill: 15; PrP UTR inh: -19; Bead autofluor: 4240; Mtb hypoxia inh growth: -8

Results for COc1cc(/C=C2\SC(N3CCC(C)CC3)=NC2=O)ccc1O ?
Mtb hypoxia inh: 7; BJeLR viability: -2; ugtP null kill: -2; RN4220 kill: 2.2; PrP UTR inh: 12; Bead autofluor: 3410; Mtb hypoxia inh growth: 0

What do the screens show for `CCCCN(CCCC)Cc1ccc(N)cc1`?
Mtb hypoxia inh: -1; BJeLR viability: 8; ugtP null kill: 3; RN4220 kill: 4.8; PrP UTR inh: -7; Bead autofluor: 9828; Mtb hypoxia inh growth: 7

How did O=C(NCC1CCCO1)c1ccc(COc2ccccc2)o1 (stereo not drawn) do in these assays?
Mtb hypoxia inh: 0; BJeLR viability: 2; ugtP null kill: 7; RN4220 kill: 4.9; PrP UTR inh: 0; Bead autofluor: 4201; Mtb hypoxia inh growth: 4

How did Clc1ccc2nc(C3CCN(Cc4ccccc4)CC3)[nH]c2c1 do in these assays?
Mtb hypoxia inh: 16; BJeLR viability: 5; ugtP null kill: 9; RN4220 kill: 5.4; PrP UTR inh: -10; Bead autofluor: 9201; Mtb hypoxia inh growth: 0

What do the screens show for `COc1ccc(CNC(=O)c2ccc3c(=O)n(CCCN4CCCC4=O)c(=S)[nH]c3c2)cc1`?
Mtb hypoxia inh: -3; BJeLR viability: 9; ugtP null kill: 2; RN4220 kill: 16; PrP UTR inh: -16; Bead autofluor: 3251; Mtb hypoxia inh growth: 4

What do the screens show for `NC(N)=Nc1nc(-c2ccccc2)c2cc(F)ccc2n1`?
Mtb hypoxia inh: 5; BJeLR viability: -1; ugtP null kill: -4; RN4220 kill: -16; PrP UTR inh: -18; Bead autofluor: 4439; Mtb hypoxia inh growth: 6

What do the screens show for `O=C(/C=C/c1ccco1)N1CCN(C/C=C/c2ccccc2)CC1`?
Mtb hypoxia inh: -3; BJeLR viability: -5; ugtP null kill: -2; RN4220 kill: -4.3; PrP UTR inh: -39; Bead autofluor: 2815; Mtb hypoxia inh growth: 10

What do the screens show for `COc1ccc(NC2=NCCCCC2)cc1`?
Mtb hypoxia inh: 7; BJeLR viability: -19; ugtP null kill: 12; RN4220 kill: 2.7; PrP UTR inh: -5; Bead autofluor: 3785; Mtb hypoxia inh growth: 16

How did CC(=O)N1CCc2c(sc(NC(=O)Cc3ccccc3)c2C(N)=O)C1 do in these assays?
Mtb hypoxia inh: 5; BJeLR viability: 8; ugtP null kill: 8; RN4220 kill: -0.3; PrP UTR inh: -11; Bead autofluor: 6231; Mtb hypoxia inh growth: 8

The last 3 compounds of the section before are carried over, then new ones follow.
What do the screens show for `O=C(/C=C/c1ccco1)N1CCN(C/C=C/c2ccccc2)CC1`?
Mtb hypoxia inh: -3; BJeLR viability: -5; ugtP null kill: -2; RN4220 kill: -4.3; PrP UTR inh: -39; Bead autofluor: 2815; Mtb hypoxia inh growth: 10

What do the screens show for `COc1ccc(NC2=NCCCCC2)cc1`?
Mtb hypoxia inh: 7; BJeLR viability: -19; ugtP null kill: 12; RN4220 kill: 2.7; PrP UTR inh: -5; Bead autofluor: 3785; Mtb hypoxia inh growth: 16

How did CC(=O)N1CCc2c(sc(NC(=O)Cc3ccccc3)c2C(N)=O)C1 do in these assays?
Mtb hypoxia inh: 5; BJeLR viability: 8; ugtP null kill: 8; RN4220 kill: -0.3; PrP UTR inh: -11; Bead autofluor: 6231; Mtb hypoxia inh growth: 8

Results for O=C(Cn1cc(C(F)(F)F)ccc1=O)NCCc1ccc(Cl)cc1Cl ?
Mtb hypoxia inh: 6; BJeLR viability: 0; ugtP null kill: 7; RN4220 kill: 2.1; PrP UTR inh: -17; Bead autofluor: 2386; Mtb hypoxia inh growth: -3

What do the screens show for `CCN(CC)S(=O)(=O)c1cccc(N=NC2=C(O)CCCC2=O)c1`?
Mtb hypoxia inh: 1; BJeLR viability: -7; ugtP null kill: -4; RN4220 kill: 7.9; PrP UTR inh: -14; Bead autofluor: 2557; Mtb hypoxia inh growth: 5

How did O=C(CSc1nccn1Cc1ccco1)Nc1ccccc1 do in these assays?
Mtb hypoxia inh: 4; BJeLR viability: -8; ugtP null kill: 8; RN4220 kill: 2.4; PrP UTR inh: -5; Bead autofluor: inconclusive; Mtb hypoxia inh growth: -3

What do the screens show for `CC1(C)CC2(CCO1)OC(=O)CC2C(=O)NCCc1ccccc1` (stereo not drawn)?
Mtb hypoxia inh: -13; BJeLR viability: 0; ugtP null kill: -1; RN4220 kill: 1.4; PrP UTR inh: -2; Bead autofluor: 3925; Mtb hypoxia inh growth: 11

How did C(=NNc1ccc2nncn2n1)c1ccco1 do in these assays?
Mtb hypoxia inh: 17; ugtP null kill: 3; RN4220 kill: 0.2; Mtb hypoxia inh growth: 11

Results for Cc1nc2ccc(N)cc2s1 ?
BJeLR viability: 3; ugtP null kill: -7; RN4220 kill: 6.1; PrP UTR inh: -22; Bead autofluor: 5984

What do the screens show for `CCCc1cc(=O)[nH]c(SCC(=O)NC)n1`?
Mtb hypoxia inh: 3; BJeLR viability: 0; ugtP null kill: 5; RN4220 kill: 1.4; PrP UTR inh: -2; Bead autofluor: 11530; Mtb hypoxia inh growth: 6

How did O=C(CSc1nc2ccccc2c(=O)n1CC1CCCO1)Nc1ccc(F)cc1 (stereo not drawn) do in these assays?
Mtb hypoxia inh: 12; BJeLR viability: -1; ugtP null kill: -5; RN4220 kill: 0.4; PrP UTR inh: -7; Bead autofluor: 3862; Mtb hypoxia inh growth: 10

How did CN(C)c1ccc(-c2nnn(CC(=O)Nc3ccc4c(c3)OCCO4)n2)cc1 do in these assays?
Mtb hypoxia inh: 7; BJeLR viability: 8; ugtP null kill: 3; RN4220 kill: 0.3; PrP UTR inh: -22; Bead autofluor: 3849; Mtb hypoxia inh growth: -2

How did CCOC(=O)c1c(SCC(=O)Nc2nccs2)nc(C)c(C)c1C do in these assays?
Mtb hypoxia inh: 14; BJeLR viability: -5; ugtP null kill: 11; RN4220 kill: 21; PrP UTR inh: -22; Bead autofluor: 5695; Mtb hypoxia inh growth: -8

Results for COc1cc(C(=O)NCCCNC(=O)c2cc(OC)c(OC)c(OC)c2)cc(OC)c1OC ?
Mtb hypoxia inh: 0; BJeLR viability: -3; ugtP null kill: -3; RN4220 kill: 2.6; Bead autofluor: 3575; Mtb hypoxia inh growth: 17

What do the screens show for `Cn1c(SCCN2CCCCC2)nnc1-c1ccccc1Br`?
Mtb hypoxia inh: 5; BJeLR viability: 2; ugtP null kill: 0; RN4220 kill: 3.0; PrP UTR inh: -9; Bead autofluor: 4517; Mtb hypoxia inh growth: 5

Results for O=C(c1ccccc1)c1ccc(C(=O)N2CCN(c3ccc(F)cc3)CC2)o1 ?
Mtb hypoxia inh: 13; BJeLR viability: 0; ugtP null kill: 5; RN4220 kill: 9.6; PrP UTR inh: 6; Bead autofluor: 2500; Mtb hypoxia inh growth: 12

What do the screens show for `COc1ccc(CNc2ccc([N+](=O)[O-])cn2)cc1`?
Mtb hypoxia inh: 2; BJeLR viability: 4; ugtP null kill: 5; RN4220 kill: 0.2; PrP UTR inh: -25; Bead autofluor: 3794; Mtb hypoxia inh growth: 10

What do the screens show for `O=C(Nc1ncc(C(F)(F)F)cc1Cl)C1COc2ccccc2O1` (stereo not drawn)?
BJeLR viability: 6; ugtP null kill: -6; RN4220 kill: 1.0; PrP UTR inh: -6; Bead autofluor: 2821

What do the screens show for `CCOC(=O)CN1C(=N)N(c2nc(NC(C)C)nc(OC)n2)CC1=O`?
Mtb hypoxia inh: 1; BJeLR viability: 10; ugtP null kill: 4; RN4220 kill: 0.8; PrP UTR inh: 15; Bead autofluor: 4732; Mtb hypoxia inh growth: -7

What do the screens show for `CCOC(=O)N1CCN(C(=O)c2ccc(Cl)nc2)CC1`?
Mtb hypoxia inh: -1; BJeLR viability: 2; ugtP null kill: 19; RN4220 kill: 3.9; PrP UTR inh: -7; Bead autofluor: 3314; Mtb hypoxia inh growth: 3

What do the screens show for `COc1ccc(C(=O)O)cc1NCc1ccc(C)s1`?
Mtb hypoxia inh: 2; BJeLR viability: -18; ugtP null kill: -1; RN4220 kill: 4.6; PrP UTR inh: -15; Bead autofluor: 3534; Mtb hypoxia inh growth: 6

How did CCCCCCCCNc1ncnc2ccccc12 do in these assays?
Mtb hypoxia inh: -7; BJeLR viability: -2; ugtP null kill: -28; RN4220 kill: -4.3; PrP UTR inh: -21; Bead autofluor: 10354; Mtb hypoxia inh growth: 0

Results for O=C(COC(=O)c1ccc(Cl)nc1)NCCc1ccc(Cl)cc1 ?
Mtb hypoxia inh: 12; ugtP null kill: 8; RN4220 kill: 3.8; PrP UTR inh: -2; Bead autofluor: 3033; Mtb hypoxia inh growth: 9

Results for CC1=Nc2cc(C(=O)NCC3CCCO3)ccc2Sc2ccc(Br)cc21 (stereo not drawn) ?
Mtb hypoxia inh: 1; BJeLR viability: 9; ugtP null kill: 7; RN4220 kill: 0.9; Bead autofluor: 4837; Mtb hypoxia inh growth: 3

What do the screens show for `Nc1cc(N)cc(-c2nc3ccccc3[nH]2)c1`?
Mtb hypoxia inh: -1; ugtP null kill: -3; RN4220 kill: 14; PrP UTR inh: -21; Bead autofluor: 2565; Mtb hypoxia inh growth: 6

How did O=C(O)c1cc2c(=O)c3ccccc3oc2nc1C(F)(F)F do in these assays?
Mtb hypoxia inh: -2; BJeLR viability: -9; ugtP null kill: 2; RN4220 kill: 1.3; Bead autofluor: 4100; Mtb hypoxia inh growth: 3

Results for CCCCc1ccc(NC(=O)CSc2nnc(C)c(=O)n2N)cc1 ?
Mtb hypoxia inh: 3; BJeLR viability: 8; ugtP null kill: 0; RN4220 kill: -2.0; PrP UTR inh: -15; Bead autofluor: 5240; Mtb hypoxia inh growth: 9

How did CCOc1ccc(N=C2NC(=O)/C(=C/C(=O)OC)S2)cc1 do in these assays?
Mtb hypoxia inh: -2; BJeLR viability: -8; ugtP null kill: 7; RN4220 kill: 6.3; PrP UTR inh: -3; Bead autofluor: 2024; Mtb hypoxia inh growth: 0

Results for CCn1cc(C=NNC(=O)c2ccc(Cl)cc2)cn1 ?
Mtb hypoxia inh: -3; ugtP null kill: 9; RN4220 kill: 5.9; Mtb hypoxia inh growth: 2

How did COc1ccc(S(=O)(=O)N2CCOCC2)cc1NC(=O)CC1CC2CCC1C2 (stereo not drawn) do in these assays?
Mtb hypoxia inh: 5; ugtP null kill: 6; RN4220 kill: 3.4; PrP UTR inh: -1; Bead autofluor: 2814; Mtb hypoxia inh growth: 2

How did Cc1ccc(S(=O)(=O)N(C)c2cc(S(=O)(=O)Nc3ccncc3)c(C)cc2C)cc1 do in these assays?
Mtb hypoxia inh: 9; BJeLR viability: 18; ugtP null kill: 8; RN4220 kill: 9.9; PrP UTR inh: -10; Bead autofluor: 2502; Mtb hypoxia inh growth: -1

Source: PubChem
